Compound activity as filed in PubChem BioAssay.
Hedgehog = Drosophila hedgehog isoform A inhibitors, primary screen, biochemical, plate reader, single concentration (AID 588832); Biochemical plate reader assay, Hedgehog inhibition; active compounds read high; inhibition, % at 30.3 µM; 8,000 tested, under 10 active; in the data active means inhibition from about 57%;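 further: 0% = neutral control wells and 100% = positive control wells; cholesterol-driven self-cleavage of fly hedgehog protein by fluorescence polarization; read one hour after cholesterol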
Starred values were filed as active, the others as inactive.

CCOc1ccccc1C(N)=O was read as Hedgehog 9.
For CC1(C)OC2CC(=O)OCC23C1CC(=O)C1(C)C3CCC2(C)C(c3ccoc3)OC(=O)C3OC321 (stereo not given) the results were Hedgehog 5.
Screening CCCCCCO returned Hedgehog 7.
`CC(=O)Nc1ccc(C(=O)O)cc1` gave Hedgehog 5.
For CC12CCC(CC1)C(C)(C)O2 the results were Hedgehog 9.
For CC(=O)NC(Cc1ccccc1)C(=O)O (stereo not given) the results were Hedgehog 5.

An excerpt (hit frequency here may not be typical).
